KCNQ2 inh = KCNQ2 channel blockers in CHO-K1 cells – cell-based, FluxOR thallium flux, B-score, primary screen (AID 2156); 20 min; active compounds read low; only compounds with negative scores are shown here; some inactives read as strong as hits; B-score at 10 µM; actives 1.1% (n = 310,000);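 active = fluorescence ratio B-score at most minus 3 library SDs, with starting brightness B-score within 2 library SDs, cut at about -5.5 in these data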
Target sequence (O88943 whole entry, looked up): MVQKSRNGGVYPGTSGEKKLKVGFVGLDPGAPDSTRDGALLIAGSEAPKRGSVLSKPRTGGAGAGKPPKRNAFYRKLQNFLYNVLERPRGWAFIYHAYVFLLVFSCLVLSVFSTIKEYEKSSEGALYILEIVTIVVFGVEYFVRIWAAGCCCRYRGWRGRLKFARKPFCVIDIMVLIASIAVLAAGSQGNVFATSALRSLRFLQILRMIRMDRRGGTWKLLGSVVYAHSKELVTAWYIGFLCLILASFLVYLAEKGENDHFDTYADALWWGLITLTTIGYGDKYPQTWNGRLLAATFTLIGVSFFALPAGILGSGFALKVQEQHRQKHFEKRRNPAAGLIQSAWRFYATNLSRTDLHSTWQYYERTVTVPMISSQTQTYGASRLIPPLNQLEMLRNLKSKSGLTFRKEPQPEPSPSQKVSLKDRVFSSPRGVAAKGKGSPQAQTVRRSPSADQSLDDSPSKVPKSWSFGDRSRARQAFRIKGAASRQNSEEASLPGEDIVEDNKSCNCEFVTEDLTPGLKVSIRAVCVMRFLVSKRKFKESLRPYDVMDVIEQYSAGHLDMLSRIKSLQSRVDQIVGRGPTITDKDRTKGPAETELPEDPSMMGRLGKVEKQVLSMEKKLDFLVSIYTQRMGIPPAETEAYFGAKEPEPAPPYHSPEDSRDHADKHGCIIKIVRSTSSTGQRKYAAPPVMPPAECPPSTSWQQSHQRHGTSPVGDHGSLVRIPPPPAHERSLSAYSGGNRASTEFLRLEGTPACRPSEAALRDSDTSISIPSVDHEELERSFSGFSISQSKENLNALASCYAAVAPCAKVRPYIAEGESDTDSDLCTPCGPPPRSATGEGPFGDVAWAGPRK
KCNQ2 inh baseline = also measured in KCNQ2 inh; calls as there; B-score; measured here: initial fluorescence intensity artifact check;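 brightness before thallium and not channel activity; 0 = typical well and far values either way flag optical interference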
An asterisk follows results filed as active; i = inactive. These rows are one share of the data; rates above refer to the full screens.

Start of the listing, in advance, 17 compounds:
SMILES	KCNQ2 inh	KCNQ2 inh baseline
CC(=O)NC(=S)Nc1ccccc1F	i	1.6
COc1cccc(Cn2c(=O)c3ccccc3n3nc(C)cc23)c1	i	0.01
O=C(NCc1ccco1)C1CCN(S(=O)(=O)c2cccc([N+](=O)[O-])c2)CC1	i	-0.38
COc1ccc(/C=C/C(=O)N2CCN(S(=O)(=O)/C=C/c3ccccc3)CC2)cc1OC	i	0.57
Cc1oc(-c2cccc(Cl)c2)nc1CN1CCC(C(=O)NCCCN2CC(C)CC(C)C2)CC1 (stereo not drawn)	i	1
CC(NC(=O)c1ccco1)C(c1cccs1)N1CCOCC1 (stereo not drawn)	i	-0.82
Cc1nc2ccc([N+](=O)[O-])cc2c(=O)n1Cc1ccc(F)cc1	i	0.14
CCCOc1c(OC)cccc1C1CC(=O)Nc2cc3c(cc21)OCCO3 (stereo not drawn)	i	-0.01
CC(=O)N(Cc1ccc(Cl)cc1)c1cnccn1	i	-0.89
O=C(CCCCC(=O)Nc1ccccc1)Nc1ccccc1	i	-0.54
CCOC(=O)c1sc2nc(C(C)C)c3c(c2c1N)CCC3	i	-0.48
Cc1cc(SCC(=O)Nc2ccccc2C)nc(C)n1	i	0.04
COc1cc(/C=C(\C#N)C(=O)N2CCOCC2)cc(Br)c1O	i	1.1
CCN(C(=O)C1CCCO1)c1ccccc1 (stereo not drawn)	i	0.94
c1ccc(-c2noc(CN3CCc4sccc4C3)n2)cc1	i	0.24
COc1ccc(C(CNC(=O)c2ccc(S(=O)(=O)N(C)C)cc2)N2CCCCC2)cc1 (stereo not drawn)	i	-1.1
CC/C(=N/Nc1cccc(C)c1)c1cnnc(SC)n1	i	3.4

Main list, repeating the preview:
SMILES	KCNQ2 inh	KCNQ2 inh baseline
CC(=O)NC(=S)Nc1ccccc1F	i	1.6
COc1cccc(Cn2c(=O)c3ccccc3n3nc(C)cc23)c1	i	0.01
O=C(NCc1ccco1)C1CCN(S(=O)(=O)c2cccc([N+](=O)[O-])c2)CC1	i	-0.38
COc1ccc(/C=C/C(=O)N2CCN(S(=O)(=O)/C=C/c3ccccc3)CC2)cc1OC	i	0.57
Cc1oc(-c2cccc(Cl)c2)nc1CN1CCC(C(=O)NCCCN2CC(C)CC(C)C2)CC1 (stereo not drawn)	i	1
CC(NC(=O)c1ccco1)C(c1cccs1)N1CCOCC1 (stereo not drawn)	i	-0.82
Cc1nc2ccc([N+](=O)[O-])cc2c(=O)n1Cc1ccc(F)cc1	i	0.14
CCCOc1c(OC)cccc1C1CC(=O)Nc2cc3c(cc21)OCCO3 (stereo not drawn)	i	-0.01
CC(=O)N(Cc1ccc(Cl)cc1)c1cnccn1	i	-0.89
O=C(CCCCC(=O)Nc1ccccc1)Nc1ccccc1	i	-0.54
CCOC(=O)c1sc2nc(C(C)C)c3c(c2c1N)CCC3	i	-0.48
Cc1cc(SCC(=O)Nc2ccccc2C)nc(C)n1	i	0.04
COc1cc(/C=C(\C#N)C(=O)N2CCOCC2)cc(Br)c1O	i	1.1
CCN(C(=O)C1CCCO1)c1ccccc1 (stereo not drawn)	i	0.94
c1ccc(-c2noc(CN3CCc4sccc4C3)n2)cc1	i	0.24
COc1ccc(C(CNC(=O)c2ccc(S(=O)(=O)N(C)C)cc2)N2CCCCC2)cc1 (stereo not drawn)	i	-1.1
CC/C(=N/Nc1cccc(C)c1)c1cnnc(SC)n1	i	3.4
CCOC(=O)Nc1ccc2c(c1)OCO2	i	-2.2
Cc1ccc(C(=O)NNC(=O)c2ccco2)cc1	i	1.4
CCOC(=O)c1ccc(NC(=S)NC(=O)c2cncc(Br)c2)cc1	i	1.5
CCOc1ccc2oc(-c3ccccc3)c(C(=O)N3CCN(C)CC3)c2c1	i	-0.05
CCn1c(=O)cc(OCC(=O)NCCCN2CCC(C)CC2)c2ccccc21	i	1.2
COc1ccc(NC(=O)CCc2nnc3ccc(N4CCN(c5cccc(OC)c5)CC4)nn23)cc1	i	-1.7
COc1ccc(-c2[nH]ncc2-c2cscn2)c(O)c1	i	1.7

Single records, from the list above. Screens in order: KCNQ2 inh, KCNQ2 inh baseline
COc1ccc(NC(=O)CCc2nnc3ccc(N4CCN(c5cccc(OC)c5)CC4)nn23)cc1 in the list: i, -1.7
COc1ccc(C(CNC(=O)c2ccc(S(=O)(=O)N(C)C)cc2)N2CCCCC2)cc1 (stereo not drawn) in the list: i, -1.1

Going on with the list:
SMILES	KCNQ2 inh	KCNQ2 inh baseline
Fc1ccccc1N1CCN(C2CCCN(Cc3ccccc3C(F)(F)F)C2)CC1 (stereo not drawn)	i	-2.3
COc1ccc(C(=O)c2c[nH]c(C(=O)NCc3ccco3)c2)cc1	i	1.3
Cc1ccc(NC(=S)N(Cc2ccccc2)Cc2cccs2)c(C)c1	i	0.22
C=CCn1c(-c2cccn(Cc3ccc(Cl)cc3Cl)c2=O)n[nH]c1=S	i	0.65
Cc1onc(-c2ccccc2)c1C(=O)NCCc1ccc(S(N)(=O)=O)cc1	i	-0.76
CCOc1ccc(C2C(C#N)=C(C)NC3=C2C(=O)c2ccccc23)cc1 (stereo not drawn)	i	-0.63
O=[N+]([O-])c1cc([N+](=O)[O-])c(Oc2ccc(F)cc2F)cc1NN1CCCCC1	i	0.09
CCCCN(CC)CCNc1c(NC2CCN(C(=O)OCC)CC2)c(=O)c1=O	i	0.11
CCN(CC)CC(=O)Nc1ccc(-c2ccc(NC(=O)CN(CC)CC)c(OC)c2)cc1OC	i	-0.02
O=C1c2cnccc2CN1Cc1ccccc1	i	-0.15
CCC(Oc1ccccc1)C(=O)Nc1ccc(S(=O)(=O)NCC2CCCO2)cc1 (stereo not drawn)	i	1.2
CCOC(=O)N1CCN=C1SCc1ccc(Cl)c(Cl)c1	i	0.77
CCOC(=O)C1=C(O)/C(=C/c2ccc(OCC(=O)Nc3ccc(C)cc3)cc2)N=C1C	i	-0.02
CCOC(=O)CN(C)C(=O)C1CCCN1C(=O)OC(C)(C)C (stereo not drawn)	i	-1.8
O=C(COC(=O)c1ccc([N+](=O)[O-])s1)NC(=O)NCc1ccccc1	i	0.7
N#CCSc1nc(-c2ccccc2)c2cc(Cl)ccc2n1	i	4.7
Cc1ccc(NC(=O)CSc2nnc(Cn3cnc4ccccc43)o2)c(C)c1	i	-1.9
Cc1cc2[nH]c(=O)cc(-c3ccccc3)n2n1	i	2.6
COc1ccc(CNS(=O)(=O)c2ccc3c(c2)N(C)CCO3)cc1	i	-0.95
COc1cccc(OCC(O)CN2CCOCC2)c1 (stereo not drawn)	i	2.1
COc1cccc(CNC(=O)CN2C(=O)c3ccccc3S2(=O)=O)c1	i	0.19
O=C(NC1CCCC1)c1ccc(COCC(F)(F)F)o1	i	2.1
O=C(CN1C(=O)COc2ccccc21)NCCCN1CCN(Cc2ccccc2)CC1	i	-0.69
Cc1ccc(S(=O)(=O)N2CCCCC2CCNC(=O)C(=O)NCC2CCCO2)cc1 (stereo not drawn)	i	0.19
CS(=O)(=O)Nc1cccc(C2=NN(S(C)(=O)=O)C(c3ccc4c(c3)OCO4)C2)c1 (stereo not drawn)	i	3
COc1cc2c(cc1OC)CN(C(=O)c1ccc(S(=O)(=O)N(C)c3ccccc3)cc1)CC2	i	-0.22
Cc1cccc(-c2noc(-c3c(C)noc3C)n2)c1	i	1.4
O=c1c(Cl)c(N2CCN(c3ccc(F)cc3)CC2)cnn1C12CC3CC(CC(C3)C1)C2	i	-1.1
CCN1CCN(Cc2nc(N)nc(Nc3ccc(C)c(C)c3)n2)CC1	i	-0.68
CC(CCc1ccccc1)NC(=O)CCNC(=O)Cn1ccc2ccccc2c1=O (stereo not drawn)	i	0.58
COc1ccc(C2c3[nH]c4ccccc4c3C[C@H]3C(=O)N(CCCO)CC(=O)N23)cc1OC (stereo partly drawn)	i	1
CCNC(=O)C(CCSC)NS(=O)(=O)c1ccc(C)cc1 (stereo not drawn)	i	-0.09
COc1ccccc1NC(=O)c1nnn(CC(=O)Nc2cc(C)cc(C)c2)c1N	i	0.62
COc1ccc(-c2nc3ccccc3c(=O)n2CCOc2ccc(C)cc2C)cc1	i	-1.9
Cc1cnc(C(=O)OCC(=O)NC(=O)c2ccccc2)cn1	i	2.5
COc1cc2c(cc1OC)C(Nc1ccccc1)=NC(C)(C)C2	i	1.5
COc1ccnc(CSC(N)=Nc2ccccc2OC)c1	i	0.42
CN(C)P(=NC(=O)COc1ccc(Cl)cc1Cl)(N(C)C)N(C)C	i	-0.09
O=C(NC1CCN(c2ncccn2)CC1)c1ccccc1Cl	i	1.3
Cc1cc(O)c(-c2cc(C(=O)Nc3sc4c(c3C(=O)NCc3ccco3)CCC4)[nH]n2)cc1C	i	-0.36
O=C(NC(=S)Nc1ccc(N2CCOCC2)cc1)c1ccc2c(c1)OCCO2	i	0.55
Cc1ccc(C)c(NC(=O)C2CC(=O)N(C3CCCCC3)C2)c1 (stereo not drawn)	i	-0.61
Cc1ncn(C23CC4CC(CC(O)(C4)C2)C3)n1	i	2
CCOc1nc(Nc2cc(Cl)ccc2OC)nc(OCC)n1	i	0.87
CCC(c1nnnn1Cc1ccco1)N(CCc1ccccc1)Cc1cc2cccc(C)c2[nH]c1=O (stereo not drawn)	i	-1
COCCCNC(=O)C(C#N)c1nc2ccccc2nc1N1CCN(Cc2ccccc2)CC1 (stereo not drawn)	i	0.02
Cc1cccc(-c2nc(CS(=O)CC(=O)NC(C)CCc3ccccc3)c(C)o2)c1 (stereo not drawn)	i	-0.3
Cc1ccc(C2=NNC(c3cccc(F)c3)S2)cc1 (stereo not drawn)	i	0.8
N#Cc1ccccc1S(=O)(=O)N1CCN(C(=O)CN2C(=O)NC3(CCCC3)C2=O)CC1	i	-1.4
Cc1cc(C(=O)Nc2sccc2C#N)c2ccccc2n1	i	0.52
O=C(CCSCc1ccccc1Cl)N1CCN(c2ccccn2)CC1	i	0.03
S=c1[nH]nc(Nc2ccccc2Cl)s1	i	0.66
CC(=O)Nc1ccc(NC(=O)C(C)N2CCN(S(=O)(=O)c3ccc(C)cc3)CC2)cc1 (stereo not drawn)	i	-0.4
CCN(CC(=O)Nc1ccc(NC(C)=O)cc1)C(=O)c1n[nH]c(=O)c2ccccc12	i	0.03
CC(=O)N1CCc2c(sc3c2c(=O)n(-c2ccccc2)c(=O)n3Cc2ccccc2Cl)C1	i	1.5
O=C(CCC(=O)N1CCOc2ccc(Cl)cc21)NCc1ccccc1	i	0.31
C/C(=N/NC(=O)Nc1ccccc1)c1ccc(C)cc1	i	1.4
CN(Cc1ccccc1)S(=O)(=O)c1ccc(NC(=S)NC(=O)C2CCCCC2)cc1	i	-2.1
O=C(Oc1ccccc1)N1CCN(C(=O)c2ccco2)CC1	i	1.4
Cc1ccccc1-c1noc(C23CC4CC(CC(C4)C2)C3)n1	i	0.45

Other results follow.
SMILES	KCNQ2 inh	KCNQ2 inh baseline
CC1(C)CC(=O)C(C(c2ccncc2)C2C(=O)CC(C)(C)CC2=O)C(=O)C1	i	-0.5
COc1ccc(OC)c2c1sc(=NC(=O)C(C)C)n2C	i	3.1
COC(=O)C1CC(O)CN1C(=O)c1ccco1 (stereo not drawn)	i	-0.13
CCCC(C)NC(=O)c1c2c(nc3ccccc13)CCC2 (stereo not drawn)	i	1.2
O=C(CN1CCN(c2ccccc2)CC1)Nc1ccc2c(c1)OCCO2	i	1.7
NN/C(=C\[N+](=O)[O-])Nc1ccccc1	i	-0.42
C=CCn1c(SCc2ccc3nonc3c2)nnc1-c1cccs1	i	0.76
Cc1cccc(NC(=O)c2cc(Cl)ccc2[N+](=O)[O-])c1	i	-1.6
COc1ccccc1CN1CC(C(=O)N(C)CCOc2ccccc2)CCC1=O (stereo not drawn)	i	-0.38
COc1ccc(NS(=O)(=O)c2cc(NC(=O)c3ccc(F)cc3)ccc2OC)cc1	i	-0.81
O=C(COc1ccc(F)cc1)NNC(=O)c1cc2ccccc2oc1=O	i	1.1
COc1cccc(NC(=O)CN2C(=O)CSc3ccc(S(=O)(=O)N4CCC(C)CC4)cc32)c1	i	-1.1
Cc1ccc(-c2noc(CNC(=O)c3ccoc3C)n2)cc1	i	0.08
COc1cccc(C(=O)NCC(=O)NCc2cc(=O)n(C)c(=O)n2C)c1OC	i	-1.9
C=CC(=O)N1c2ccccc2Sc2ccc(NC(=O)OCC)cc21	i	-1.4
CC1CCCCC1NC(=O)C1CCC(CNS(=O)(=O)c2ccc(F)cc2)CC1 (stereo not drawn)	i	-0.64
CC(C)n1c(=O)[nH]c2ccccc21	i	0.02
COC(=O)CC1COc2ccccc2N1C(=O)c1cccc(C(F)(F)F)c1 (stereo not drawn)	i	1.6
Cc1ccc(-n2ncc3c2CC(C)(C)CC3NC(=O)CCCN2CCCC2=O)cc1 (stereo not drawn)	i	0.52
COc1ccc(OC)c(NS(=O)(=O)c2ccc(NC(C)=O)cc2)c1	i	-0.16
CCn1c(SCC(=O)N2CCCCCC2)nc2c([nH]c3ccccc32)c1=O	i	0.35
CCOC(=O)CNC(=O)COc1coc(CN2CCN(c3ccccc3F)CC2)cc1=O	i	0.56
COC(=O)CSc1nc2c(c(C3CC=CCC3)c1C#N)CCC2 (stereo not drawn)	i	-0.04
COc1cccc(CN2CCN(Cc3cccn3-c3cccnc3)CC2CCO)c1 (stereo not drawn)	i	0.54
COc1ccc(S(=O)(=O)N2CCc3ccccc32)cc1C(=O)Nc1ccc(C(N)=O)cc1	i	-0.4
CN(Cc1ccccc1)c1nc2c(c(=O)[nH]c(=O)n2C)n1Cc1ccccc1Cl	i	0.23
Cc1ncoc1C(=O)N1CCCC(C(=O)c2ccc(C(F)(F)F)cc2)C1 (stereo not drawn)	i	0.13
Cn1c(CC(=O)Nc2ccccc2F)nnc1SCC(=O)NC1CCCC1	i	1.9
C=C(C)C(=O)Nc1cccc(C2=NOC3(C2)C[C@@H](C(N)=O)N(C(=O)/C(C)=C/C)C3)c1 (stereo partly drawn)	i	1.1
CCCCn1c(N)c(N(CC(C)C)C(=O)c2cccc(S(=O)(=O)N(C)c3ccc(C)cc3)c2)c(=O)[nH]c1=O	i	-1.8
FC(F)(F)c1cccc(Nc2cc(-c3ccccc3)nc3ncnn23)c1	i	1
CCCCOC(=O)C1=C(C)NC(=O)NC1c1ccc([N+](=O)[O-])s1 (stereo not drawn)	i	0.78
COc1ccc(C(=O)NNC(=O)CSc2nc3c([nH]2)c(=O)n(C)c(=O)n3C)cc1	i	0.98
Cc1ccccc1N(CC(=O)Nc1ccc(F)cc1)S(C)(=O)=O	i	-0.15

From PubChem
